Screening results from PubChem.
LANA-H2A inh – blockers of LANA interaction with H2A/H2B – biochemical, FP readout, HTS, primary screen; Protein LANA1 (Human herpesvirus 8 type P (isolate GK18)), Q9QR71; cell-free LANA-H2A/H2B peptide, fluorescence polarization; inhibition, % (no concentration beside the values); 320,000 tested, 0.6% active; in the data active = inhibition mostly above about 10%, no sharp cut-off; inactive = mostly below about 6.7%;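 note: stock transfer was 7.5 nL into about 10 µL; 0% = median of vehicle wells and 100% = median of positive control wells; one replicate is shown; the record names a cut of 25% in any replicate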
Target sequence (Q9QR71 whole entry, looked up): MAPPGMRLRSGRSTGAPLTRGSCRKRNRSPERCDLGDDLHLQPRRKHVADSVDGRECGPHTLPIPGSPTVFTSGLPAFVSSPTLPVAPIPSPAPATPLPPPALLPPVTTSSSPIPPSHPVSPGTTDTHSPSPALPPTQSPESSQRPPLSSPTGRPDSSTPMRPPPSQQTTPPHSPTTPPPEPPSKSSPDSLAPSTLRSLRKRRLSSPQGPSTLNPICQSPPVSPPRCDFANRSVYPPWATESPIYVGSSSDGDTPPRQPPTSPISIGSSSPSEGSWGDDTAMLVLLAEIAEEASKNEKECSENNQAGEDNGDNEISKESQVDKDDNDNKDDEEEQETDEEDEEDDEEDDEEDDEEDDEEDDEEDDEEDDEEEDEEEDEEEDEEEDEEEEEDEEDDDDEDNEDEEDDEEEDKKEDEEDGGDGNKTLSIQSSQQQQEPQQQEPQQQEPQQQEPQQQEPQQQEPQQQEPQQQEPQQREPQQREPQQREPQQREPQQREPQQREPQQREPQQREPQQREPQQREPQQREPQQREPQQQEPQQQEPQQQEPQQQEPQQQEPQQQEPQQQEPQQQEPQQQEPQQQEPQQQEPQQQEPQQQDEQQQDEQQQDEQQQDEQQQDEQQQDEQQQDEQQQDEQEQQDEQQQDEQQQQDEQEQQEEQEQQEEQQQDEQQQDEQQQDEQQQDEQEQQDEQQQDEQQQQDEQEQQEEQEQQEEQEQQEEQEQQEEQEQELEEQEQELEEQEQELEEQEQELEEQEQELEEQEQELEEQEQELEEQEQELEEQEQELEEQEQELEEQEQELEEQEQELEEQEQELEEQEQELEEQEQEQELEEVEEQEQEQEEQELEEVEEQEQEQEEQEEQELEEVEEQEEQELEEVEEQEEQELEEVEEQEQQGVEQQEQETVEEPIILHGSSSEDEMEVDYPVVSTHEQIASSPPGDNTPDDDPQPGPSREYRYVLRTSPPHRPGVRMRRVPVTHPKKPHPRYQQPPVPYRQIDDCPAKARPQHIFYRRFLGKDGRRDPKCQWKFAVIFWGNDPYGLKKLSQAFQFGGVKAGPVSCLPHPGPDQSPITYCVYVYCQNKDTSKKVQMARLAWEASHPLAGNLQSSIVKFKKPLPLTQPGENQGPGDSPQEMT
Vif TR-FRET – inhibitors of Vif binding to APOBEC3G peptide, primary screen, biochemical, TR-FRET, GST-Vif 1-94, biotin-A3G peptide, dose response retest (AID 1117319); Virion infectivity factor (Human immunodeficiency virus type 1 group M subtype B (isolate …; TR-FRET GST-Vif / biotin-A3G peptide binding; higher % means a stronger effect; test concentration not given here; strong numbers were not always called active; inhibition, %, or IC50 in µM where a hit was titrated; 260,000 tested, 0.57% active;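 active = above the screen mean plus three standard deviations and confirmed in dose response; inconclusive = results disagree or hit not tested in dose response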;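 note: Vif residues 1-94 fused to GST binding biotinylated APOBEC3G peptide 110-148; 0% = full assay without inhibitor and 100% = GST in place of GST-Vif; retest series ran down from 100 µM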
HNF4A DNA FP – change in binding of human HNF4A to DNA, primary screen, biochemical, fluorescence polarization, FITC-DNA | Hepatocyte nuclear factor 4-alpha (Homo sapiens), P41235 | 1 h | activity change, % at 10 µM | 360,000 tested, 0.3% active; in the data active = activity change above about 30%, passing the limit was not always enough;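 note: controls were the assay level and a saturating level of protein; the project sought stronger binding though the title names inhibitors; some compounds called inactive have numbers as strong as hits; positive values seem to mean higher polarization but the record does not say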
Beta2AR agonist – beta2AR agonists driving receptor internalization, primary screen, cell-based, FAP fluorogen, flow cytometry; 340,000 tested, 0.43% active; response, % (no concentration beside the values); Beta-2 adrenergic receptor (Homo sapiens), P07550; Am2.2-beta2AR cells; reference of the scale not given here;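 active = response above a set limit, near 3 SD of response in nonfluorescent compounds, cut at about 42% in these data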;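 note: stock transfer was 100 nL into about 11 µL; a reference agonist was the positive control; negative values mostly stem from fluorescent compounds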
RanGTP-Imp inh – inhibitors of RanGTP-importin-beta interaction, primary screen, biochemical, FRET, CFP-Ran, YFP-importin-beta, homogeneous. Ran GTPase (GTP-bound) - importin-beta complex. cell-free CFP-Ran/YFP-importin-beta FRET ratio. inhibition, % (no concentration beside the values). 300,000 tested, 1.1% active. AID 2216, 2009;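 active = most replicates above 15%; inconclusive = exactly half above 15%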;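 note: 0% = DMSO wells and 100% = Ran loaded with GDP instead of GTP; wells of about 40 µL received 100 nL stock; the first replicate is given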
ALR inh – inhibitors of human ALR sulfhydryl oxidase, primary screen, biochemical, H2O2 detection, HRP-luminol luminescence, single point; purified ALR, DTT oxidation; inhibition, % (test concentration not listed); 290,000 tested, 3.8% active;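 active = mean and each replicate at 75% or more; inconclusive = only one of the two met; inactive = neither met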;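 note: stock transfer was 7.5 nL into about 7.5 µL; 0% = neutral wells and 100% = wells with inactivated enzyme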
Calb FLC – C. albicans growth inhibition with fluconazole, primary screen, CaCi-2 strain, Alamar Blue fluorescence. 300,000 tested, 0.57% active. AID 1979, 2009. growth inhibition, % (no concentration beside the values). C. albicans CaCi-2 (fluconazole-resistant clinical isolate) + fluconazole, 48 h;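 active = most replicates above 75%; inconclusive = exactly half above 75%; inactive = most below 75%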;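 note: all wells also contain fluconazole at 8 µg/ml as a sub-toxic cotreatment; 0% = median of DMSO wells and 100% = median of geldanamycin control wells; wells of about 8 µL received 7.5 nL stock; the first replicate is given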
* hit, by the source's call; ? = inconclusive; . = not tested or not shown; & = joins results of further samples. Rows are unselected; overall some 6.3% were active at least once.

SMILES	LANA-H2A inh	Vif TR-FRET	HNF4A DNA FP	Beta2AR agonist	RanGTP-Imp inh	ALR inh	Calb FLC
O=C(CSc1nc(=O)n(CCCN2CCOCC2)c2c1CCCC2)Nc1ccccc1Cl	-6.3	11%	0.6	1	1.0	-4	24
CCCCCC(C)NC(=O)c1ccoc1C (configuration not stated)	-3.2	-3%	0.4	-2	0.6	66	0
CC(=O)c1ccc(C(=O)N2CCCC(N3CCN(c4ccc(F)cc4)CC3)C2)s1 (configuration not stated)	4.2	1%	1.5	1	7.0	.	34
CCC(=O)NS(=O)(=O)c1cccnc1Nc1ccc(Cl)cc1	0.8	3%	-0.7	8	-0.5	-12	-6
C1=C(c2ccccc2)CCN(c2nc3ccccc3n3cnnc23)C1	5.9	13%	0.2	10	2.5	95*	6
Cc1cc([N+](=O)[O-])ccc1P(=O)(O)c1ccc([N+](=O)[O-])cc1C	.	-6%	-1.3	-1	.	.	.
O=C(O)c1cc2c(cc1NC(=O)c1c(F)cccc1Cl)OCCCO2	2.1	.	3.0	-2	6.0	.	-5
O=C(N/N=C/c1sc2ccccc2c1O)c1ccccc1	-6.9	.	134	8	7.5	88*	21
CCOc1ccc(C(=O)NCC(c2cccs2)N(C)C)cc1 (configuration not stated)	1.3	5%	-7.0	-3	8.3	-6	-18
CC1(C(=O)O)CCC(C(=O)NCCc2ccccc2)C1(C)C (configuration not stated)	-1.1	-1%	-1.0	5	-2.8	2	37
CCOc1ccc(C(C)=O)cc1CC(C(N)=O)C(N)=O	-2.3	0%	0.9	12	0.2	10	-3
C/C(=N\OC(=O)C1CC1)C1CC1c1ccc(F)cc1 (configuration not stated)	2.4	.	0.7	-5	-0.2	-23	2
Cc1ccc(S(=O)(=O)NC2CC3CCC2C3)cc1 (configuration not stated)	-5.9	.	-2.8	-1	3.8	-14	-5
Cc1ccc2cc(C#N)c(NCc3ccco3)nc2c1	-5.1	?	2.0	-5	-0.4	-5	23
COC(=O)Cc1c(O)ccn(Cc2cccc(C(F)(F)F)c2)c1=O	2.1	-6%	2.4	2	-2.5	-3	3
Cc1ccc(NC(=S)Nc2cc(-c3ccccc3)[nH]n2)cc1Cl	0.4	-14%	-2.4	7	.	.	-5
Cc1ccnn1CC(=O)N/N=C/c1cn[nH]c1-c1ccccc1	-0.5	17%	-0.8	3	-2.8	-9	2
CCOP(=O)(OCC)C(NC(=O)C(F)(F)F)c1ccccc1 (configuration not stated)	1.0	.	0.4	5	4.6	-15	-6
CC1=C(NCCc2ccccc2)CCC1=O	2.8	3%	2.7	-5	2.8	0	-3
CCCOn1c(-n2nc(C)cc2C)nc2ccccc2c1=O	2.1	32%	2.4	-4	4.7	-10	2
COC(=O)c1ccccc1NC(=O)CSCC(=O)Nc1ccccc1OC	-2.1	3%	0.2	10	-3.7	-7	2
CCc1nnc(NS(=O)(=O)c2ccc(NC(=O)c3cccc(OC(F)(F)C(F)F)c3)cc2)s1	-0.3	.	0.0	3	-0.1	88*	-9
CCOC(=O)C1(C(F)(F)F)N=C(N(C)C)OC(N(C)C)=N1	-0.4	-5%	0.8	5	1.7	.	-1
Cc1nnc(SCC(=O)N2CCC(c3noc4ccc(F)cc34)CC2)s1	2.4	0%	4.1	-7	-0.9	-26	-1
CCOC(=O)CSC1=C(C#N)C(c2ccccc2C)C2=C(CCCC2=O)N1 (configuration not stated)	-0.8	9%	0.3	11	0.7	-4	0
Additional records follow:
SMILES	LANA-H2A inh	Vif TR-FRET	HNF4A DNA FP	Beta2AR agonist	RanGTP-Imp inh	ALR inh	Calb FLC
COc1cc2c(C#N)c(N3CCCC3)nc(N)c2c(N)n1	1.2&-1.4	.	26&11	-8&2	1.2&2.1	58	4&-2
CC(C)(C)C1(C)OC(C(=O)NC2CCCCC2)C(C(=O)NC2CCCCC2)O1 (configuration not stated)	-4.6	-7%	-1.6	6	-4.6	-3	17
Cc1ccccc1CN1CCC(Oc2ccc(C(=O)N3CCCC3)cc2)CC1	0.0	.	-1.4	5	2.5	-5	-27
CC(C)[C@H](NC(N)=O)C(=O)Nc1ccc(F)c(Cl)c1	1.2	.	2.5	5	-2.1	1	4
CCC[C@@H]1Cc2ccccc2N1C(C)=O	2.0	.	-4.0	-1	.	-2	.
O=C(CSc1nnc(-c2ccccc2Cl)o1)Nc1ccc2c(c1)OCCO2	3.1	-2%	-1.4	4	5.7	-5	0
COc1cc(OC)c2ccc(=O)oc2c1C(CCN1CCOCC1)c1ccc2c(c1)OCO2 (configuration not stated)	.	2%	1.8	-3	.	.	.
NC(=O)C1CCN(C(c2ccccc2Cl)c2nnnn2Cc2ccc3c(c2)OCO3)CC1 (configuration not stated)	26*	5%	-0.4	-1	7.9	-3	1
Fc1ccc(NC(=S)N2CCN(c3ncccn3)CC2)cc1	-0.9	2%	5.6	-4	1.0	1	-6
COc1cc(F)ccc1S(=O)(=O)N1CCN(C23CC4CC(CC(C4)C2)C3)CC1	-2.6	-1%	-2.4	-2	3.5	0	-37
Cc1ccc(C)c2c(N)c3c(nc12)CCCCC3 (tested in a mixture with another compound)	-6.2	24%	0.2	2	-2.0	-5	7
N#C/C(=C\c1ccc(-c2ccc([N+](=O)[O-])cc2)o1)C(=O)Nc1nc(-c2cccs2)cs1	-2.8	2%	-9.3	0	-2.8	-1	-10
O=C(CCC(=O)Nc1ccc(F)cc1)N/N=C/c1ccncc1	6.9	5%	2.8	1	4.5	0	-12
O=C(CCC1COc2ccccc2O1)NCC1COc2ccccc2O1 (configuration not stated)	5.2	25%	-2.6	6	3.9	2	-7
O=c1onc(-c2ccccc2)n1-c1cc(Cl)cc(Cl)c1	-3.3	.	3.7	-3	4.1	1	14
O=[N+]([O-])c1cc(C(F)(F)F)cc([N+](=O)[O-])c1NCCNC(=S)Nc1ccc(Cl)c(Cl)c1	0.6	0%	-1.4	3	-1.7	-2	0
COc1ccc(CNCc2c(C(=O)N(C)C)nc3ccc(Cl)cn23)c(OC)c1	-4.7	0%	1.6	0	-1.2	-25	-3
O=C(CC1SC(=Nc2ccccc2)N(CCO)C1=O)Nc1ccccc1 (configuration not stated)	-3.5	?	0.2	-6	-1.2	-20	-11
COc1cccc(NS(=O)(=O)c2cn(C)c(=O)n(C)c2=O)c1	3.3	-4%	-0.7	5	-0.4	8	-12
Fc1ccc(CSc2ccc(-c3ccco3)nn2)cc1	-0.4	.	0.6	7	-1.8	98*	-10
O=C(COC(=O)[C@@H]1CCCN1S(=O)(=O)c1ccccc1F)Nc1ccc(OC(F)F)cc1	0.4	6%	0.0	-6	-2.4	3	5
Cc1cccc(N2CCN(C(=O)c3c(Cl)cnn3C)CC2)c1C	-2.7	.	0.8	4	3.1	0	13
CCOc1ccc(N(C(=O)Nc2ccccc2)C2=NCCC2)cc1	-2.0	-4%	-1.1	-8	?	11	-30
Cc1ccc(/C=C2\SC(=S)N(CCCC(=O)Nc3cccc(C(=O)O)c3)C2=O)cc1	1.8	.	2.9	4	1.0	1	0
CN(C)C(=S)Nc1ccc(Br)c(Cl)c1	2.6	-2%	0.1	-2	1.4	11	-6
Other results follow:
SMILES	LANA-H2A inh	Vif TR-FRET	HNF4A DNA FP	Beta2AR agonist	RanGTP-Imp inh	ALR inh	Calb FLC
O=C(O)C1CCC(NSc2ccccc2[N+](=O)[O-])CC1 (configuration not stated)	3.8	-7%	1.6	4	2.1	-2	-3
Cc1cc(C(=O)N2CCCC(C(=O)c3cccc(C(F)(F)F)c3)C2)n[nH]1 (configuration not stated)	7.9	-1%	-0.3	3	3.1	2	-2
CCCCCCOc1ccc(N2C(=O)CC(NCc3ccc(S(N)(=O)=O)cc3)C2=O)cc1 (configuration not stated)	-3.9	?	0.8	16	1.0	-6	-4
COc1ccc(C(C(=O)NC2CCCC2)N(C(=O)c2snc(C(N)=O)c2N)c2cccc(O)c2)cc1 (configuration not stated)	1.0	.	-8.3	19	0.3	-19	-6
O=C(NCc1ccc2c(c1)OCO2)C1CCCN(S(=O)(=O)c2cccc3cccnc23)C1 (configuration not stated)	-4.1	8%	2.8	-14	1.2	-4	-20
O=C(CC1C(=O)NCCN1Cc1ccc(Cl)c(F)c1)NC1CCCCC1 (configuration not stated)	-2.9	.	0.9	5	-1.3	1	-1
CCn1c(SCC(=O)N2c3ccccc3Sc3ccccc32)nnc1-c1ccco1	-6.2	-3%	0.9	-3	2.1	15	15
O=C(CSc1ccc2ccccc2c1)N1CCN(c2ccc(O)cc2)CC1	0.3	4%	1.3	-5	-5.7	98*	-15
O=C(CSc1nc2ccccc2s1)N1c2ccccc2Sc2ccccc21	2.2	5%	-1.3	1	0.3	-5	1
Cc1ccc(/C=C(\NC(=O)c2ccccc2)C(=O)NC(Cc2ccccc2)C(=O)O)cc1 (configuration not stated)	-3.7	13%	0.9	8	3.1	4	-3
Cc1ccc(NC(=O)OCc2cccs2)cc1	-0.9	.	.	.	-6.4	-1	1
COc1ccc(C)cc1NC(=O)c1nnn(CCc2ccccc2)c1N	-1.2	-8%	-0.1	3	-2.3	-5	-13
N#CC1(c2ccccc2)CCC(=O)N1c1ccccc1 (configuration not stated)	0.4	-7%	0.8	-5	4.9	-10	-3
CCOc1ccc(C(=O)NCC(=O)NNC(=O)c2ccco2)cc1OCC	-0.1	-4%	1.4	-16	.	0	.
O=C(O)C1C2C=CC(C2)C1C(=O)N1CCN(CCO)CC1 (configuration not stated)	1.4	2%	-0.4	7	5.6	.	-3
O=C(CCNS(=O)(=O)c1ccc(Br)s1)NCc1ccccc1Cl	-2.0	.	3.1	-4	0.9	-2	-17
Cc1cccc(OCC(=O)NC2CCCCCC2)c1C	-2.2	.	-1.0	5	4.8	4	-9
Cc1oc(C(C)(C)C)cc1C(=O)N1CCN(C(c2ccccc2)c2ccccc2)CC1	-2.4	2%	5.1	-2	-3.0	0	5
O=S(=O)(Nc1nc(SCc2ccc(Cl)cc2)n[nH]1)c1ccc(F)cc1	-0.9	.	8.8	-6	3.1	-4	18
O=C(OCC(=O)c1c[nH]c2ccccc12)c1cc(S(=O)(=O)N2CCOCC2)ccc1F	1.2	2%	3.3	30	.	-2	.
Cc1onc(-c2ccccc2Cl)c1C(=O)NCCCc1ccccc1	3.8	.	-2.7	-5	-3.5	-1	-4
CCCCN(CCCC)CC(O)COc1ccccc1Br (configuration not stated)	2.6	-3%	-2.2	14	12	-10	-25
COC(C[C@H]1O[C@H]1C(=O)[C@H](C)OCc1ccccc1)OC	-0.9	.	1.4	4	-4.2	-10	-9
COC(=O)c1[nH]c2ccccc2c1NC(=O)CN1CCC(C(N)=O)(N2CCCCC2)CC1	-1.2	-9%	2.8	7	0.2	1	1
COc1cc(N)c(Cl)cc1C(=O)OCC(=O)N1CCc2ccccc21	2.5	.	3.0	-2	.	11	.
O=C(CN1CCSCC1)c1c[nH]c2ccccc12	-1.3	6%	1.2	-12	-0.7	-14	-4
Cc1ccc(CNc2oc(-c3cccs3)nc2C#N)cc1	-0.1	5%	2.2	6	-1.4	8	2

Just HNF4A DNA FP (3 entries from above):
| structure | HNF4A DNA FP |
| --- | --- |
| O=C(CCNS(=O)(=O)c1ccc(Br)s1)NCc1ccccc1Cl | 3.1 |
| Cc1cccc(OCC(=O)NC2CCCCCC2)c1C | -1.0 |
| Cc1oc(C(C)(C)C)cc1C(=O)N1CCN(C(c2ccccc2)c2ccccc2)CC1 | 5.1 |
